# Bioassay records as filed in PubChem.
# Rce1 inh: blocks yeast Ras-converting enzyme; 0.27% of 290,000 active; AID 2563; calls only; Q03530; yeast membranes, quenched prenylated peptide cleavage fluorescence;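 active = fall in fluorescence gain of 50% or more versus controls, with final raw signal at or below 3038400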;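 also: plate controls were neutral control wells for no effect and wells lacking membranes for full effect; tested at 10 µM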
# Target sequence (Q03530 whole entry, looked up): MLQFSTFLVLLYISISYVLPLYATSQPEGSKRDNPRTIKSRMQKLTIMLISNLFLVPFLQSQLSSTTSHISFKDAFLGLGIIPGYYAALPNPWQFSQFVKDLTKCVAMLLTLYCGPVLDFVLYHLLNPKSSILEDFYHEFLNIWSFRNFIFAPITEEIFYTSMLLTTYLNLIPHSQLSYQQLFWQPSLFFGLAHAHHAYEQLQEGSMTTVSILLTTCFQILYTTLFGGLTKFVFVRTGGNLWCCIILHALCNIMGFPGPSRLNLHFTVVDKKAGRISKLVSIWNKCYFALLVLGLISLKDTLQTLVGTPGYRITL
# eIF4H FP inh: inhibitors of RNA binding by human eIF4H; AID 2012; Q15056; inhibition, % at 35 µM; eIF4H fluorescence polarization binding assay; 0.94% of 290,000 active;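 active = 50% or more with normal probe brightness, or confirmed in later tests; about a fifth of its hits are not listed in these tables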;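 also: calls also rest on retests at 20 µM and on dose response follow-up; 0% = protein and probe with vehicle and 100% = probe without protein; strong numbers were not always called active; many hits fall short of the cut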
# MT1-MMP act inh: blocks activation of human MT1-MMP | P50281 | HT1080 RFP-PRO-GFP cells, GFP/RFP ratio fluorescence, overnight; percent of plate control window, DMSO zero | GFP/RFP ratio change, % at 20 µM | 0.061% of 360,000 active | AID 651647;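 active = GFP/RFP ratio change of at least 30% with cell ATP level not reduced by more than half and red fluorescence within 50% of control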; also: strong numbers were not always called active
#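 Test system: HT1080 cells expressing an RFP-PRO-GFP fluorescent reporter construct / Compound dosing: single-point 20 µM compound, 1% DMSO / Schedule: cells overnight before dosing, compound overnight, 37 °C, 5% CO2 / Evaluation: GFP/RFP fluorescence ratio / Control set: DMSO and RFP-L50D-GFP cell wells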
# PABP polyA inh: PABP-poly(A) binding inhibition; inhibition, % at 35 µM; 1% of 290,000 active; P11940; PABP-poly(A) RNA binding, fluorescence polarization;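 active = 50% or more with normal probe brightness, or confirmed in later tests; about a fifth of its hits are not listed in these tables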;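 also: calls also rest on retests at 20 µM and on dose response follow-up; controls were probe without protein and protein plus probe with vehicle; some compounds called inactive have numbers as strong as hits; many hits fall short of the cut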
# HIV Env fusion: blocks HIV Env-driven cell-cell fusion | HeLa-JRFL Env/CEM21 cell fusion, luciferase | inhibition, % at 12.3 µM | 1.1% of 360,000 active;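 active = mean replicate inhibition score of at least 50 and every replicate individually at or above 50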;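 also: 0% = plate neutral controls and 100% = maraviroc near 300 nM; one replicate is shown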
# CSC inhib: cancer stem cell inhibition | cancer stem cell-like cells viability, luminescence | inhibition, % at 7.5 µM | 1.1% of 300,000 active;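 active = mean at 75% or more and at least half the replicates too; tested in HMLE shEcad cells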;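 also: 0% = median of negative and 100% = median of positive control wells; the first replicate is given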
# UUG fidelity: yeast start codon fidelity modulation. S. cerevisiae UUG-firefly luciferase reporter, luminescence/redox ratio. activity score, % at 18.7 µM. 0.13% of 350,000 active. AID 602363;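 active = replicate mean at a twofold rise or more, about +100% in these data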;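 also: firefly luciferase made from a UUG start codon reports start codon fidelity; reporter light over untreated wells divided by growth signal over untreated wells; some hits fall short of that in this replicate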
# eIF4H FP inh retest: also measured in eIF4H FP inh; calls as there; inhibition, %; compound at 20 µM; confirmation average;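 mean of two retest wells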
# PABP polyA inh retest: recorded beside PABP polyA inh, whose call it bears; inhibition, %; compound at 20 µM; confirmation repeats;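 mean of two retest wells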
# MT1-MMP act inh RFP: second read-out of MT1-MMP act inh, no call of its own (marks repeat the call); RFP signal change, %; measured here: RFP expression control read;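 0 = vehicle wells; hits needed this value within 50% of zero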
# Numbers without * were called inactive; i = inactive; / = not tested or not shown.
SMILES,Rce1 inh,eIF4H FP inh,MT1-MMP act inh,MT1-MMP act inh RFP,PABP polyA inh,HIV Env fusion,CSC inhib,UUG fidelity,others
CCOC(=O)Cc1csc(N/C(=N/S(=O)(=O)c2cc(Br)ccc2OCC)c2ccccc2)n1,i,-12.5,-9.7,-5.5,-23.7,14.6,-2.2,/,
CCc1cc(C(=O)N(C)CC(=O)N(CC(C)C)c2c(N)n(CC(C)C)c(=O)[nH]c2=O)sc1C,i,-4.8,1.1,-1.5,-14.5,/,-16.2,-7.7,
COc1cc(Nc2nc3ccccc3n3nnnc23)cc(OC)c1OC,i,79.9*,-4.1,3.7,86.6*,-6.9,4.5,-13.9,
O=C(Cn1c(=S)[nH]c2ncccc2c1=O)NCCc1ccccc1,i,-0.6,/,/,-5.4,-10.2,-7.2,/,
CC1CCCN(C(=O)c2ccc(CNc3c(N4CCCCC4)c(=O)c3=O)cc2)C1 (stereo unspecified),i,-7.0,-4.0,-1.6,0.7,-0.8,5.4,-14.4,
CCN(CC)C(=O)C1CCCN(Cc2ccc3ccccc3c2)C1 (stereo unspecified),i,2.9,2.0,4.3,10.3,-2.5,-10.6,-8.4,
O=C(O)CC(CC(=O)Nc1ccc(N2CCOCC2)cc1)c1ccccc1 (stereo unspecified),i,-2.5,2.8,-0.2,-5.1,-6.4,-5.1,-10.3,
O=C(OCCN1CCOCC1)c1ccccc1Cl,i,/,3.4,-0.3,/,5.0,-8.0,-16.7,
Cc1ccc(S(=O)(=O)NCc2ccc(C(=O)N3CCN(Cc4ccccc4)CC3)cc2)cc1,i,5.2,-4.8,-17.9,4.9,/,/,/,
COc1c(C)cc(C(=O)C2CCCN(C(=O)c3cc(C)n(C)n3)C2)cc1C (stereo unspecified),i,-6.0,4.8,-6.0,-1.7,-4.0,-7.2,2.7,
Cc1ccccc1C(=O)OCCN1CCOCC1,i,-15.8,-0.1,3.9,-1.7,/,-6.2,-16.0,
C/C(N)=C(/C#N)C(=O)COC(=O)c1ccc(O)cc1,i,0.3,-4.9,7.2,-5.5,4.9,/,/,
COc1ccc(Cc2nnc(NN)[nH]c2=O)cc1OC,i,5.6,2.5,2.4,1.1,-37.7,/,-5.1,
O=C(NC1=NCCS1)c1ccc(Cl)c(S(=O)(=O)N2CCOCC2)c1,i,-2.0,0.2,4.2,-12.5,8.3,15.0,/,
CCOC(=O)N1CCN(C(=O)C2CCCN(S(=O)(=O)c3ccc(F)cc3)C2)CC1 (stereo unspecified),i,-11.5,3.9,4.2,-0.5,12.1,2.3,-6.5,
O=C(NNC(=O)c1ccccc1Br)c1cccs1,/,-4.5,2.9,2.8,-14.3,-11.5,-4.2,-13.8,
O=S(=O)(Nc1ccc(S(=O)(=O)N2CCCCC2)cc1)c1ccc(Br)s1,i,2.1,-7.6,-4.8,0.4,/,17.5,-10.7,
COc1ccc(CNC(=O)CCN2C(=O)c3ccccc3C2=O)cc1,i,-7.5,0.4,2.6,-0.8,3.0,-19.6,0.3,
O=S(=O)(NCC1CCCO1)c1ccc(S(=O)(=O)N2CCCC2)cc1 (stereo unspecified),i,0.8,-0.6,1.1,-1.7,/,-2.9,-2.5,
COc1ccc(-c2csc(NC(=O)c3ccc(N4C(=O)CCC4=O)cc3)n2)cc1OC,i,-0.2,1.7,-8.7,32.6,13.8,-8.2,/,
CN(Cc1ccccc1)C1=CC(=[N+]2CCCCC2)CC(C)(C)C1,i,-9.5,-4.2,-35.3,51.4*,44.5,15.8,0.2,eIF4H FP inh retest=4.7;PABP polyA inh retest=98.5*
O=C(c1ccc(CS(=O)(=O)c2ccc(Br)cc2)o1)N1CCN(c2ccccn2)CC1,i,1.7,-2.6,2.6,4.6,8.4,-7.2,-15.8,
CCCCn1c(N)c(N(C(=O)CSc2nncn2-c2ccccc2C)C2CCCC2)c(=O)[nH]c1=O,/,/,-9.0,-4.1,/,2.2,/,-0.4,
Cc1ccccc1-c1n[nH]c(=S)n1C,i,3.0,4.3,5.0,10.1,-100.6,-4.3,/,
CC(C)Cn1c(/C=N/Nc2nc3ccccc3[nH]2)nc2ccccc21,i,21.8,-4.3,-6.0,12.0,33.4,/,/,
COc1ccc2[nH]c(C(=O)NCCCN3CCCC3=O)c(C)c2c1,i,/,-3.4,1.2,/,-3.1,-8.9,9.2,
c1ccc(-c2ccccc2OCCCN2CCOCC2)cc1,i,11.1,0.8,2.5,23.9,-0.3,4.6,/,
O=C(COC(=O)/C=C/c1cccc(C(F)(F)F)c1)NC(c1ccccc1)c1ccccc1,i,6.0,5.5,4.1,4.6,20.9,/,-13.4,
CC1=CCC(/C=N\Nc2nnc3c(n2)[nH]c2ccccc23)CC1 (stereo unspecified),i,-6.4,/,/,8.2,/,-11.9,/,
COc1ccc(CNC(=O)C[C@H]2C[C@H](C(=O)N3CCOCC3)[C@@]3(C)c4[nH]c5cc(CCC(=O)N(C)C)ccc5c4CCN3C2=O)cc1OC,/,/,2.0,2.7,/,-4.2,/,21.0,
COc1ccc2c(c1)C(NS(=O)(=O)OCC(Cl)(Cl)Cl)CCC2 (stereo unspecified),i,-6.3,0.7,-0.5,2.8,6.1,10.2,-19.9,
NC(CC(=O)OC1CCCCC1)C(=O)OC1CCCCC1 (stereo unspecified),i,-8.8,0.5,3.5,-1.1,/,2.3,-3.1,
O=c1[nH]c2ccccc2c2ccccc12,i,-1.7,-2.3,0.0,-3.5,-10.4,8.4,-12.1,
CCCCN1CC(COCc2ccccc2)Oc2cccc(N3CCCC3)c2S1(=O)=O (stereo unspecified),/,/,-2.0,-5.6,/,-34.5,/,-16.8,
Cc1cc(C(=O)NNC(=O)Nc2ccccc2)no1,i,-1.9,/,/,-1.9,11.8,6.1,-13.4,
Cc1cc(N2CCN(Cc3ccccc3)CC2)n2nc(C)c(-c3ccccc3)c2n1,i,5.6,-1.8,-18.3,-7.9,63.3*,64.9,-5.1,
O=C(N/N=C/c1ccccn1)c1cc(-c2ccc(Br)cc2)nc2ccccc12,i,12.9,4.6,-6.8,3.0,-7.3,65.8,/,
COC(=O)c1ccc(NC(=O)CSc2nncc3ccc(OC)c(OC)c23)cc1,i,-7.5,-0.8,5.5,-17.9,2.3,-3.5,-3.0,
COc1cc(C(=O)NCCOc2cccc(C)c2)c(Br)c(OC)c1OC,i,7.3,1.4,-0.1,-4.9,-9.6,-6.2,-3.7,
Cc1ccc(C2=NC3(CCCCCC3)NC2=S)cc1,i,-0.3,5.6,5.1,5.3,-2.3,-2.0,/,
O=C(CCN1C(=O)/C(=C/c2cccs2)SC1=S)N1CCCCC1,i,-1.3,-1.5,-7.3,3.0,-3.3,42.8,9.4,
CCOc1ccc(NC(=O)Nc2nnc(CC)s2)cc1,i,-0.6,8.5,6.7,-0.2,/,-13.3,-2.4,
COc1ccccc1CC(=O)Nc1cccc(F)c1,i,-2.5,-0.1,0.8,-9.6,13.5,1.2,/,
Cc1c(Cl)cccc1NS(=O)(=O)c1ccccc1,/,/,2.0,5.6,/,-0.4,/,-9.5,
O=S(=O)(NC1CCCCC1)c1cccc(-c2nnc(-c3ccccc3)o2)c1,i,-3.9,0.1,-6.9,9.6,27.6,-8.3,-10.9,

# An excerpt from further up, for reference:
SMILES,Rce1 inh,eIF4H FP inh,MT1-MMP act inh,MT1-MMP act inh RFP,PABP polyA inh,HIV Env fusion,CSC inhib,UUG fidelity,others
CCN(CC)C(=O)C1CCCN(Cc2ccc3ccccc3c2)C1 (stereo unspecified),i,2.9,2.0,4.3,10.3,-2.5,-10.6,-8.4,
O=C(O)CC(CC(=O)Nc1ccc(N2CCOCC2)cc1)c1ccccc1 (stereo unspecified),i,-2.5,2.8,-0.2,-5.1,-6.4,-5.1,-10.3,
O=C(OCCN1CCOCC1)c1ccccc1Cl,i,/,3.4,-0.3,/,5.0,-8.0,-16.7,
Cc1ccc(S(=O)(=O)NCc2ccc(C(=O)N3CCN(Cc4ccccc4)CC3)cc2)cc1,i,5.2,-4.8,-17.9,4.9,/,/,/,

# Four compounds drawn at random from those above, as already listed:
SMILES,Rce1 inh,eIF4H FP inh,MT1-MMP act inh,MT1-MMP act inh RFP,PABP polyA inh,HIV Env fusion,CSC inhib,UUG fidelity,others
Cc1cc(C(=O)NNC(=O)Nc2ccccc2)no1,i,-1.9,/,/,-1.9,11.8,6.1,-13.4,
Cc1ccc(C2=NC3(CCCCCC3)NC2=S)cc1,i,-0.3,5.6,5.1,5.3,-2.3,-2.0,/,
NC(CC(=O)OC1CCCCC1)C(=O)OC1CCCCC1 (stereo unspecified),i,-8.8,0.5,3.5,-1.1,/,2.3,-3.1,
CCCCN1CC(COCc2ccccc2)Oc2cccc(N3CCCC3)c2S1(=O)=O (stereo unspecified),/,/,-2.0,-5.6,/,-34.5,/,-16.8,

# Additional results follow:
SMILES,Rce1 inh,eIF4H FP inh,MT1-MMP act inh,MT1-MMP act inh RFP,PABP polyA inh,HIV Env fusion,CSC inhib,UUG fidelity,others
Cc1nnc(Nc2ccc(Cl)cc2)n(N)c1=O,i,-0.6,2.4,5.7,3.8,-131.6,/,-0.5,
Cc1cccc(C2NC(=O)c3ccccc3O2)c1 (stereo unspecified),i,-14.7,-3.5,1.1,10.8,-3.7,-10.6,-5.0,
COC(=O)CN1C(=O)C2(C(C#N)=C(N)Oc3n[nH]c(-c4cccs4)c32)c2ccccc21 (stereo unspecified),i,-3.3,1.3,-0.4,4.8,-5.7,-3.4,-7.0,
CCSc1nc2ccccc2n1CC(=O)OC,i,-8.5,4.1,7.0,-13.5,29.3,2.3,-22.4,
CC1(NC(=S)Nc2ccccc2)CCS(=O)(=O)C1 (stereo unspecified),i,3.4,1.4,-0.7,6.6,7.8,-8.4,-8.2,
CCCCN1C[C@H](COC(=O)CCC)Oc2cccc(F)c2S1(=O)=O,/,/,3.3,2.7,/,1.2,/,-9.3,
COc1cccc(C(NC(C)=O)c2nc(-c3ccccc3C)cs2)c1 (stereo unspecified),/,/,-0.1,3.4,/,-19.6,/,9.3,
CCc1nc2c(OCCC3CCCCC3)cccn2c1N(C)C(=O)c1ccncc1,/,/,0.3,-2.4,/,16.3,/,-19.6,
O=C(Nc1ccccc1)Nc1cccc(Cl)c1Cl,i,0.8,-6.2,-9.3,-10.3,18.2,-9.7,-4.9,
O=S(=O)(c1ccc(Nc2ccc3c(c2)OCO3)nc1)N1CCOCC1,i,-2.7,4.6,7.3,1.7,-21.4,2.1,-20.5,
Cc1c(NC(=O)c2cc3nc(-c4ccc(Cl)cc4)cc(C(F)(F)F)n3n2)c(=O)n(-c2ccccc2)n1C,i,10.3,-4.2,-7.5,7.8,-55.0,-1.8,-16.4,
COc1ccc(Nc2ccc(Cl)cc2)c(C(=O)O)c1,i,1.2,-0.1,3.1,5.9,-0.3,6.1,/,
O[C@H]1c2ccccc2[C@H](Cc2cncs2)[C@@H]1Br,/,/,3.4,1.2,/,4.1,-2.8,-17.7,
c1ccc(OCCCn2nnc(-c3ccc(N4CCOCC4)cc3)n2)cc1,i,-4.0,5.6,1.5,-5.7,/,9.5,-10.9,
COc1ccc(N2CCN(Cc3nc4scc(-c5cccs5)c4c(=O)[nH]3)CC2)cc1,i,44.3,-9.3,-1.5,-3.1,-12.8,10.6,/,
O=C(O)C/C(=C\c1cccc(NC(=O)c2ccccc2Cl)c1)c1nc2ccccc2s1,i,37.2,-1.5,3.1,-1.8,-13.6,-3.7,3.1,
O=C(O)CCSc1nc2ccccc2n1Cc1ccccc1,i,0.9,0.9,3.6,10.8,-3.6,-10.5,2.5,

# Outcome played no part in choosing rows, and some 2.9% of all compounds hit somewhere here.
